# MEKK3 PB1 HTS: modulators (inhibitors or enhancers) of MEK5 binding to human MEKK3 PB1 domain. bead-based flow cytometry, Alexa488-MEK5 binding to MEKK3; actives lie on both sides; 0 = blocked by unlabeled MEK5, 100 = vehicle. binding response (% of control), % at 10 µM. 1.4% of 290,000 active;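 active = binding response more than 3 SD above or below the average of its plate-row segment, actives on both sides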;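 also: Alexa488 bead fluorescence after subtracting the streptavidin-only scavenger bead signal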
# IDE cell activ: IDE (human) activation, cell-based; P14735; HEK cells, FAbeta-B cleavage, fluorescence polarization; 0% vehicle, 100% cell-free pure enzyme wells; activation, % at 5.96 µM; 0.073% of 340,000 active; AID 493087;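 active = activation above the mean of all tested compounds plus 3 SD, set per screening campaign, cut at about 17% in these data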
# PHOSPHO1 block: PHOSPHO1 (human) inhibition | Q8TCT1 | recombinant PHOSPHO1, absorbance phosphatase assay | inhibition, % at 13.3 µM | 1.1% of 290,000 active | AID 1565; in the data active = inhibition above about 60%
# GalR3 antag: human GalR3 antagonism; O60755; HEK293 GalR3-CNG cAMP membrane potential fluorescence; galR3 body fused to GalR1 C-terminus; inhibition, % at 3 µM; 0.44% of 360,000 active; AID 651719;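 active = inhibition above the screen-wide average plus 3 SD, cut at about 13% in these data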;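 also: forskolin and galanin both at EC90 stimulate the cells; cAMP rise reported by CNG channel membrane potential dye signal; 0% = forskolin plus galanin with DMSO and 100% = forskolin alone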
# IDE inh: inhibits human insulin-degrading enzyme in HEK cells; FAbetaB cleavage, fluorescence polarization; P14735; inhibition, % at 5.59 µM; 0.41% of 320,000 active; AID 434962;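 active = percent inhibition above the average of all tested compounds plus 3 SD, set per screening campaign, cut at about 16% in these data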;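 also: IDE supplied by intact live HEK cells; FP after avidin binding of uncleaved biotin substrate so inhibition keeps polarization high; 0% = DMSO wells and 100% = 60 µM reference IDE inhibitor Ii1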
# * hit, by the source's call; . = not tested or not shown; & = joins results of further samples. Some of the compounds tested; rates above refer to the full screens.
no.	MEKK3 PB1 HTS	IDE cell activ	PHOSPHO1 block	GalR3 antag	IDE inh	Structure
1	98.0	-1.0	4.9	4.5	2.9	Cc1ccc(-n2c(C)cc(C3=NNC(=NC4CC4)SC3)c2C)cc1C
2	101.0	3.3	15.1	-2.5	5.1	CCN(Cc1ccncc1)C(=O)C(CO)c1ccccc1 (configuration not stated)
3	.	-0.8	.	-1.8	.	N#Cc1c(-c2ccc(Cl)cc2)c(-c2ccc(Cl)cc2)nn(CCO)c1=O
4	113.0	3.7	8.4	.	5.4	CNCCCC1c2ccccc2C=Cc2ccccc21
5	97.0	4.2	.	.	1.3	CCOC(=O)[C@H](CCc1ccccc1)N[C@H]1CCc2ccccc2N(CC(=O)O)C1=O
6	104.0&88.0	5.4	-21.0	.	-2.2	COC(=O)C1=C(C)NC(C)=C(C(=O)OC)C1c1ccccc1[N+](=O)[O-]
7	111.0&100.0&104.0&72.0	5.0&1.3&3.5	-3.8&27.6&27.7&44.7	-9.3&-6.7	1.5&-2.7&-0.9	CNCCCC12CCC(c3ccccc31)c1ccccc12
8	97.0	8.3	23.1	.	-2.5	CCn1nc(C(=O)O)c(=O)c2cc3c(cc21)OCO3
9	168.0*	-2.6	0.0	-2.7	0.2	Cc1nc2ccccc2c(-c2ccccc2)c1CC(=O)O
10	96.0&100.0	.	31.7	.	-2.1	Nc1ccn([C@@H]2CS[C@H](CO)O2)c(=O)n1
11	84.0	3.4	1.1	-1.9	3.9	CC(C)(C)c1ccc(C(O)CCCN2CCC(C(O)(c3ccccc3)c3ccccc3)CC2)cc1 (configuration not stated)
12	76.0	-2.4	30.5	-0.8	-3.6	CC(=O)N1CCN(C(c2ccccc2)c2ccccc2)CC1
13	99.0	7.3	60.8*	-5.7	-0.4	CN(C)c1ccnc2sc(C(N)=O)c(N)c12
14	105.0	4.4	.	25.9*	1.9	Oc1cc2c(c(Cl)c1O)CCNCC2c1ccccc1 (configuration not stated)
15	.	1.0	.	-3.5	1.0	O=C(O)c1cc(S(=O)(=O)N2CC=C(c3ccccc3)CC2)ccc1O
16	102.0&106.0	-3.0&4.1	1.1&-19.0	-7.3	3.7&-3.3	CN(C)CCCN1c2ccccc2Sc2ccc(Cl)cc21
17	87.0	8.8	8.4	.	-1.7	CNCCC=C1c2ccccc2CCc2ccccc21
18	.	4.6	.	-4.0	.	C=C(CN(C)C)C(=O)c1cc(OC)c(OC)cc1OC

# Five records picked at random from the list so far:
no.	MEKK3 PB1 HTS	IDE cell activ	PHOSPHO1 block	GalR3 antag	IDE inh	Structure
14	105.0	4.4	.	25.9*	1.9	Oc1cc2c(c(Cl)c1O)CCNCC2c1ccccc1 (configuration not stated)
18	.	4.6	.	-4.0	.	C=C(CN(C)C)C(=O)c1cc(OC)c(OC)cc1OC
16	102.0&106.0	-3.0&4.1	1.1&-19.0	-7.3	3.7&-3.3	CN(C)CCCN1c2ccccc2Sc2ccc(Cl)cc21
13	99.0	7.3	60.8*	-5.7	-0.4	CN(C)c1ccnc2sc(C(N)=O)c(N)c12
17	87.0	8.8	8.4	.	-1.7	CNCCC=C1c2ccccc2CCc2ccccc21

# Compound profiles (already shown). Screens in order: MEKK3 PB1 HTS, IDE cell activ, PHOSPHO1 block, GalR3 antag, IDE inh
# `O=C(O)c1cc(S(=O)(=O)N2CC=C(c3ccccc3)CC2)ccc1O` across the screens: ., 1.0, ., -3.5, 1.0
# `CN(C)c1ccnc2sc(C(N)=O)c(N)c12` across the screens: 99.0, 7.3, 60.8*, -5.7, -0.4
# `C=C(CN(C)C)C(=O)c1cc(OC)c(OC)cc1OC` across the screens: ., 4.6, ., -4.0, .

# From PubChem
